Menin-MLL FL inh = menin-MLL binding inhibition, fluorescein peptide. Fluorescence polarization, fluorescein-MLL peptide displacement from menin. FP activity change, % at 61.4 µM. 290,000 tested, under 10 active. AID 1766; inconclusive = falling polarisation curve, or a change in total fluorescence; inactive = total fluorescence flat and polarisation flat or rising; no compound was filed as active; the % refers to the polarisation; negative = inhibition;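 also: % of control where 0% means no effect; inhibitors lower the polarisation; unlabelled MLL peptide was the positive control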
ClpP mod = qHTS Assay for Activators of ClpP. AID 651965, 2013. ATP-dependent Clp protease proteolytic subunit (Bacillus subtilis (strain 168)), P80244. Potency, µM (series often up to 57.5 µM), for inactives: at the top dose activity change, negative = active. 340,000 compounds, 1.9% hits. purified B. subtilis ClpP, FRET peptide cleavage, 20 min; active = well fitted falling curve with a large enough effect; inconclusive = small, poorly fitted or top-dose-only effect; inactive = no such curve, though single readings can be large or run the other way; also: potency is read from the fitted curve at half-maximal effect; the source files actives as falling curves though it sought activators and does not explain the sign; nearly all actives have a fitted effect of over 65% in size; many hits overshoot -100%
Target sequence (P80244 whole entry, looked up): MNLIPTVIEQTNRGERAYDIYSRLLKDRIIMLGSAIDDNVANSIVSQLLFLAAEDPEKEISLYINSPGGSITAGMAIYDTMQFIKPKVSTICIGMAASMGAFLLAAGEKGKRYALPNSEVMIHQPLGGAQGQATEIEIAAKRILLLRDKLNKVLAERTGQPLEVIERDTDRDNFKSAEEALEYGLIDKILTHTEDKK
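Purified B. subtilis ClpP, 10 microg/mL final in Tris/HCl pH8 with KCl, BSA, glycerol and Tween-20, cleaved an Abz/nitrotyrosine-quenched decapeptide. Fluorescence (ex 320, em 430) was read at 0 and 20 min at room temperature. Delta was normalized to 5.8 microM ADEP and DMSO/no-enzyme controls.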
Sfp inh = Sfp phosphopantetheinyl transferase inhibition. Biochemical Sfp PPTase activity, qHTS. Potency, µM, without a hit: max response, negative = inhibition, usual class: inhibitors. Q9F4F7. 310,000 compounds, 3.5% hits; active = well fitted inhibition curve with a large enough effect; inconclusive = small, poorly fitted or top-dose-only effect, or another doubt; inactive = no such curve, though single readings can be large or run the other way;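 also: the enzyme is Sfp with the accession as filed and its product quenches rhodamine fluorescence; potency is read from the fitted curve at half-maximal effect; 0% = enzyme reaction without inhibitor and -100% = no enzyme wells; top concentration of the series not given in the record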
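Fluorescence-quenching assay with 15 nM Sfp, 5 uM rhodamine-CoA and 12.5 uM BHQ-2-labelled ybbR peptide in pH 7.6 Hepes/MgCl2 buffer. Enzyme was pre-incubated with compound for 15 min at room temperature. Rate was taken from the 30-min fluorescence change (525/598 nm).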
TRPML1 blocker = blocks the human TRPML1 channel | 390,000 compounds, 0.02% hits | activity change, negative = inhibition, % (concentration not given with the values) | TRPML1-inducible cells, Ca2+ dye fluorescence, FDSS; hits give low values; inhibition of EC80 agonist-evoked calcium signal; in the data active means activity change below about -50%; inconclusive means about -30% to -50%; inactive means above about -30%;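 also: stimulus is agonist 54-4 at its EC80 concentration; % is scaled to controls: 0 for no effect and ±100 for the full control effect; the text of the record puts the active cut at -80%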
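TRPML1-DL cells, Tet-induced overnight (~16 h, 37 °C) at 1,500 cells/well, were loaded with Ca8 no-wash dye plus quencher for 45-90 min at room temperature. Compounds were pinned during FDSS kinetic reading; agonist 54-4 at EC80 (4 uM final) then added.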
gsp agonist = gsp mutant agonism | Potency, µM (doses to about 76.9 µM), for inactives: top-dose activation (cAMP increase), hits mostly activators | AID 624287 | gsp mutant cells, cAMP HTRF, 30 min; control for the full effect not named in the record | 340,000 compounds, 0.13% hits; active = well fitted activation curve with a large enough effect; inconclusive = small, poorly fitted or top-dose-only effect, or another doubt; inactive = no such curve, though single readings can be large or run the other way; cell line not stated here;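 also: phosphodiesterase inhibitor Ro 20-1724 added with compounds to block cAMP breakdown; potency is read from the fitted curve at half-maximal effect; nearly all actives have a fitted effect of over 60% in size; about a fifth of the inactives were tested at one dose only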
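Cells in DMEM/10% FBS with G418 were pretreated with compounds in DMSO plus […] (300 uM stock) for 30 min at 37C. cAMP was measured by HTRF (cAMP-d2 plus anti-cAMP antibody-K) after 30 min at room temperature.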
gsp antagonist = antagonists of gsp mutant (McCune-Albright syndrome) | gsp-mutant cells, cAMP HTRF, 30 min; control for the full effect not named in the record | 340,000 compounds, 0.4% hits | AID 624288 | Potency, µM (series often up to 76.9 µM), inactives show top-dose activity change, negative = inhibition, most hits filed as inhibitors; active = falling curve of any shape with a large fitted effect; inconclusive = falling curve, mostly with a smaller effect; inactive = flat or rising curve; cell line not stated here;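 also: intracellular cAMP measured with PDE inhibitor Ro 20-1724 present during compound exposure; potency is read from the fitted curve at half-maximal effect; % is scaled to controls: 0 for no effect and ±100 for the full control effect; nearly all actives have a fitted effect of over 65% in size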
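HTRF cAMP measurement after 30 min RT detection following 30 min, 37C compound treatment alongside […] (added as 300 uM solution) in G418-selected cells seeded at 2000/well and grown 16–24 h.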
TRPV1 PAM = potentiators of human vanilloid receptor 1 (TRPV1); Q8NER1; TRPV1-expressing cells, Fluo-8 calcium influx, capsaicin EC20 potentiation; host cell line not named in the record; control for the full effect not named in the record; potentiation, % at 8.33 µM; 320,000 compounds, 0.02% hits; AID 540277; active means potentiation above 80%; inconclusive means 30% to 80%; inactive means below 30%; also: 0% is about no effect
Target sequence (Q8NER1 whole entry, looked up): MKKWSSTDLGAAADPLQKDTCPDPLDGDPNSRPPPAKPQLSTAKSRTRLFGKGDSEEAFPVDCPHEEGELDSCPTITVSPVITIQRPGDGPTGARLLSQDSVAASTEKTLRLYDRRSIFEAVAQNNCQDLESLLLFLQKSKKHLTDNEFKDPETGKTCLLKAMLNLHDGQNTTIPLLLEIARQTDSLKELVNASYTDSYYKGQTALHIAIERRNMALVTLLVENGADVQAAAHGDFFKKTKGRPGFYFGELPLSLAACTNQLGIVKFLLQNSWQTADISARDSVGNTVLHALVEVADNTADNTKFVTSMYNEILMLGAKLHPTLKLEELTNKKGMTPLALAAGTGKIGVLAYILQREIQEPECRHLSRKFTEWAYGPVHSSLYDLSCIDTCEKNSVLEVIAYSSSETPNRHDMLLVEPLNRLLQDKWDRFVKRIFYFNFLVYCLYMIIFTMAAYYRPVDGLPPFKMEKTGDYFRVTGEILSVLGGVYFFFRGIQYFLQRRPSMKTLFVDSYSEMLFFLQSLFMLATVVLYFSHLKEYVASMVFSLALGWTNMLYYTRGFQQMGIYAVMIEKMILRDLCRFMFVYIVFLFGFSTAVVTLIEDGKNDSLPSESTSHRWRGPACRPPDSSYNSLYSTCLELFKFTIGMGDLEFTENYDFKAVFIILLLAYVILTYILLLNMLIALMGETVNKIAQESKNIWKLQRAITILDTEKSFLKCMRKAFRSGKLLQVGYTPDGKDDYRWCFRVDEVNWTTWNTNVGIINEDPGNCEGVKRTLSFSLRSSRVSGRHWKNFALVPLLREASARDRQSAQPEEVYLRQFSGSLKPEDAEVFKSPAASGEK
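Cells expressing TRPV1 were dye-loaded with Fluo-8 and read kinetically: 10 s baseline, 3 min after compound (agonist portion), then 2 min after EC20 capsaicin (allosteric enhancer portion). Calcium-bound dye fluorescence at 480/520 nm.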
Starred values were filed as active, the others as inactive; ? = inconclusive; . = not tested or not shown; [ ] = another dose, or the depositor's remark.

SMILES	Menin-MLL FL inh	ClpP mod	Sfp inh	TRPML1 blocker	gsp agonist	gsp antagonist	TRPV1 PAM
Cc1oc(-c2ccccc2Cl)nc1CS(=O)(=O)CC(=O)N1CCOCC1	11	0.6%	13%	2	25%	3%	26
O=C(N=C1c2ccccc2CN1c1ccc(F)c(Cl)c1)c1cccnc1Cl	-0.6	.	-6%	.	.	.	-12
Cc1cc(C)n2cc(-c3ccc(Cl)cc3)c(C(=O)O)c2n1	0.6	-11%	9%	2	22%	-3%	-10
O=C1NC(C(F)(F)F)(C(F)(F)F)N=C2SC=CN12	2.9	-0.6%	8%	17	2%	3%	0
CCN(CC)S(=O)(=O)c1ccc(NC(=O)CNC2CCCCC2)cc1	-4.6	-2.3%	-23%	-3	?	6%	-14
Cc1nn(Cc2ccccc2)c(Cl)c1C(=O)OCC#N	0.6	2.0%	14%	2	22%	17%	8
CN(CCOc1ccccc1)CC(=O)Nc1ccc([N+](=O)[O-])cc1Cl	-0.3	-2.6%	-4%	-28	18%[15.4 µM]	-25%	13
Cc1cccc(NC(=S)N2CCN(S(=O)(=O)c3ccc(F)cc3)CC2)c1	3.0	-1.2%	6%	-14	-2%	-5%	-9
O=C(CN1C(=O)C(=O)N(C2CCCC2)C1=O)Nc1cc(Cl)ccc1[N+](=O)[O-]	.	-2.3%	.	46	20%	2%	.
CS(=O)(=O)c1cccc(-c2nnc(NC(=O)c3ccc4ncsc4c3)o2)c1	.	-4.1%	.	17	-9%	1%	-6
Cc1[nH]c2ccc(Cl)cc2c(=O)c1CN1CCCC1	-3.1	.	7%	8	0%	1%	7
COc1cc2c(NCCCCCO)ncnc2c(OC)c1OC	.	-24%	.	-2	14%	.	.
CCOC(=O)C1CCN(C(=O)c2ccc(N(C)S(C)(=O)=O)cc2)CC1	-2.2	2.5%	9%	-2	16%	6%	0
COc1cc(C(=O)NCCNc2nc3ccc(C)cc3cc2C#N)cc(OC)c1OC	0.5	3.9%	6%	0	-32%[inhibitor]	0%	10
O=C(O)C[C@]1(C(=O)Nc2ccc(F)cc2)CC(/C=C/c2ccccc2)=NO1	2.1	.	11%	7	-24%	0%	4
O=C(C1=C[C@H](c2coc3ccccc3c2=O)C[C@H](OCCCCO)O1)N1CCN(Cc2ccc3c(c2)OCO3)CC1	-3.6	-0.8%	10%	-11	.	-11%	-7
COc1ccc(CC2(CO)CCN(S(=O)(=O)c3sccc3C)CC2)cc1	5.2	1.0%	-6%	-9	1%[15.4 µM]	?	-13
COc1ccc(S(=O)(=O)N2CCOCC2)cc1NC(=O)Cc1coc2cc(C)c(C)cc12	.	-0.9%	1%	15	-29%	-21%	1
CCC1CCCCN1Cc1cc(OC)c(O)c([N+](=O)[O-])c1 (stereo not given)	0.1	-1.5%	-5%	13	-33%[inhibitor]	-9%	14
COc1cc(OC)c2c(-c3cccc(-c4ccc(NC(C)=O)cc4)c3)cc(=O)oc2c1	2.8	?	13%	84	.	6%	.
COc1cc(CN(C(=O)c2ccco2)c2ccc(C)cc2)ccc1O	1.3	-1.2%	2%	12	-8%	-2%	-13
O=C(Cc1cccc2ccccc12)Nc1ccc(OC(F)F)c(Cl)c1	-0.3	-1.5%	6%	24	3%	?	2
CC1=C(C(=O)N2CCOCC2)CC(CC(=O)NCCCCc2ccccc2)C(=O)N1CCCN1CCCC1=O (stereo not given)	.	1.1%	.	27	?	.	.
CCCCCCCn1c(=N)n(CC(O)c2ccco2)c2ccccc21 (stereo not given)	1.9	.	1%	51	-13%[15.4 µM]	-9%	24
O=C1NN(c2cccc(Br)c2)C(=O)/C1=C/c1cccs1	6.7	0.4%	-4%	-23	-4%	2%	-12
COc1ccc(C(=O)O/N=C(\N)c2ccccc2)c(OC)c1	-2.2	7.1%	0%	1	-39%	-11%	-1
COc1cc(SC)ccc1C(=O)NCCNC(=O)c1nonc1N	.	.	16%	-3	4%	-4%	3
O=Cc1c(Sc2ccccn2)nc2ccccn2c1=O	-0.4	-2.3%	-1%	32	9%	7%	-17
O=C(O)c1ccc(N2CCCCS2(=O)=O)cc1	1.8	.	14%	7	8%[15.4 µM]	4%	-2
Cc1cc(C)c2c(=O)n3c(nc2c1)C(CC(C)C)NC(=O)c1cccnc1-3 (stereo not given)	.	-2.1%	.	8	-23%	.	.
COc1ccccc1CNc1ncccc1[N+](=O)[O-]	7.5	-0.8%	2%	0	-14%	21%	23
Cc1ccccc1C(=O)NC(=S)NCc1cccnc1	-2.7	.	-3%	23	5%[15.4 µM]	.	?
Cc1ccccc1NC(=O)n1ncc2cc(Cl)ccc21	4.9	.	18%	17	23%	4%	-14
CC(C)c1c(O)nc(SCCC(=O)O)[nH]c1=O	0.6	-0.6%	13%	14	?	1%	0
O=c1[nH]c(=O)n(Cc2ccccc2)c2nc(-c3ccc(Oc4ccc(F)cc4)c([N+](=O)[O-])c3)n(CCO)c12	7.2	6.1%	-13%	-2	?	-9%	2
CC(=O)Nc1ccc(S(=O)(=O)N(C)CC(=O)OCC(=O)N(C)C2CCS(=O)(=O)C2)cc1 (stereo not given)	.	-4.0%	.	-22	-2%[15.4 µM]	7%	-9
C=CCSc1nnc(N2C(=O)C(O)=C(C(=O)c3ccco3)C2c2ccc(F)cc2)s1 (stereo not given)	.	-1.1%	?	15	?	?	-6
CCc1ccc(NC(=O)c2ccc(OC)c([N+](=O)[O-])c2)cc1	-5.0	-21%	1%	4	-6%	-3%	9
CCCCCn1c(SCC#N)nc2cc(C(=O)NCC3CCCO3)ccc2c1=O (stereo not given)	1.5	-8.9%	8%	9	?	49%[activator]	-8
C[C@H](CO)N1C[C@H](C)[C@@H](CN(C)Cc2ccc3cccnc3c2)OCc2cnnn2CCCC1=O	.	-1.2%	.	43	-1%	.	.
COCCCNC(=O)CC(=O)N/N=C\c1ccc(SC)cc1	-2.9	3.6%	9%	-14	-39%	8%	15
Cc1cccc(C(=O)NCC(=O)OCC(=O)N2CCN(S(=O)(=O)c3ccc(C)cc3C)CC2)c1	.	1.0%	.	0	11%	-6%	-5
COCCNC(=O)Cn1cc(/C=C(\C#N)C(=O)NC2CCCC2)c2ccccc21	6.3	4.6%	11%	-9	-29%	-5%	-1
Cc1cc(NC(=O)CSc2cc(C)c3ccccc3n2)no1	.	.	.	8	19%	6%	.
O=[N+]([O-])c1ccccc1/C=C/C=N/n1c(-c2ccco2)n[nH]c1=S	-0.5	.	-5%	-19	-2%[15.4 µM]	-4%	-2
O=c1oc2c(CN3CCOCC3)c(O)ccc2c2c1CCCC2	-1.6	-15%	-1%	-1	?	6%	-4
Cc1ccc(C)c(N=Nc2ccc(O)c3ncccc23)c1	2.4	0.2%	6%	-17	16%	10%	?
COc1cc(CC(=O)NCC2COc3ccccc3O2)cc(OC)c1OC (stereo not given)	-0.7	.	8%	1	-13%[15.4 µM]	13%	3
C=CCn1c(SCC(=O)Nc2ccc(F)cc2)nc2cc(C(=O)O)ccc2c1=O	3.0	.	14%	4	?	-4%	-7
O=C1NN(c2ccccc2)C(=O)/C1=C\c1ccc(-c2cc([N+](=O)[O-])ccc2O)o1	-4.4	.	79µM*	10	-19%	?	4
Cc1ccccc1NC1=NS(=O)(=O)c2ccccc21	4.2	-2.1%	-2%	-5	4%	9%	8
Cc1cc(Cl)c(OCCCNCc2ccccc2)c(Br)c1	-0.4	-1.4%	?	5	0%	0%	-9
O=C(CSc1ncccn1)N/N=C/c1ccc(OC2CSC2)cc1	-2.6	1.6%	-7%	-2	-17%	-9%	-7
Cc1ccc(S(=O)(=O)/N=C(\N)Nc2nc(C)c3cc(C)c(C)cc3n2)cc1	0.6	-25%	1%	-1	24%	12%	6
Cc1cccc(C(=O)Nc2nnc(SCC(=O)Nc3ccc4c(c3)oc3ccccc34)s2)c1	.	-4.0%	7%	8	9%	11%	-1
CCOC(=O)c1ccc(NC2=CC(=O)CC(c3ccco3)C2)cc1 (stereo not given)	4.7	?	9%	-6	-11%[15.4 µM]	-4%	-20
CC1CC(=O)N(c2ccc(NCCc3ccccc3)c([N+](=O)[O-])c2)C1=O (stereo not given)	-1.4	.	-19%	10	4%[15.4 µM]	1%	3
Cc1ccc(NC(CC(=O)c2ccccc2)c2ccc(F)cc2)cc1 (stereo not given)	-2.8	0.2%	10%	-9	4%	-17%	-10
COc1ccc(CN2CCN(Cc3cn(C)nc3-c3ccccc3)CC2CCO)c(C)c1C (stereo not given)	-0.6	.	3%	-8	-25%[15.4 µM]	8%	-5
CCOc1ccc(Br)cc1S(=O)(=O)N1CCCN(C)CC1	.	.	7%	2	-6%[15.4 µM]	7%	9
Next section
SMILES	Menin-MLL FL inh	ClpP mod	Sfp inh	TRPML1 blocker	gsp agonist	gsp antagonist	TRPV1 PAM
CC1CN(C)C(c2ccccc2)C(C)C12NC(=O)NC2=O (stereo not given)	-3.9	-1.2%	8%	-2	2%	6%	2
Cc1nc2ccccc2c(C)c1CC(=O)N(CC(C)C)c1c(N)n(Cc2ccccc2)c(=O)[nH]c1=O	.	1.8%	.	0	-4%[15.4 µM]	-3%	12
CCN(CC)C(=O)CSc1nnc(-c2ccncc2)n1N	4.2	0.3%	13%	7	4%	6%	-8
COc1cc(CNC2CCC(C)C2)cc(OC)c1 (stereo not given)	0.4	-2.4%	17%	12	25%	-7%	10
Cc1c(Cl)cccc1NC(=S)NCc1ccco1	3.8	0.2%	-5%	13	-11%	3%	-15
N#CC1=C(N)Oc2c(ccc3cccnc23)C1c1ccncc1 (stereo not given)	0.0	.	-1%	1	-7%[15.4 µM]	22%	.

Source: PubChem BioAssay (National Center for Advancing Translational Sciences (NCATS))
